Assay outcomes as filed in PubChem.
gsp agonist: agonists of gsp mutant (McCune-Albright syndrome). gsp mutant cells, cAMP HTRF, 30 min; control for the full effect not named in the record. Potency, µM (highest dose often 76.9 µM), for inactives: at the top dose activation (cAMP increase), most hits filed as activators. 340,000 tested, 0.13% active; active = well fitted activation curve with a large enough effect; inconclusive = small, poorly fitted or top-dose-only effect, or another doubt; inactive = no such curve, though single readings can be large or run the other way; cell line not stated here;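 also: phosphodiesterase inhibitor Ro 20-1724 added with compounds to block cAMP breakdown; potency is read from the fitted curve at half-maximal effect; nearly all actives have a fitted effect of over 60% in size; about a fifth of the inactives were tested at one dose only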
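Cells in DMEM/10% FBS with G418 were pretreated with compounds in DMSO plus […] (300 uM stock) for 30 min at 37C. cAMP was measured by HTRF (cAMP-d2 plus anti-cAMP antibody-K) after 30 min at room temperature.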
Menin MLL FP FL: menin-MLL binding inhibition, fluorescein peptide; Fluorescence polarization, fluorescein-MLL peptide displacement from menin; FP activity change, % at 61.4 µM; 290,000 tested, under 10 active; AID 1766; inconclusive = falling polarisation curve, or a change in total fluorescence; inactive = total fluorescence flat and polarisation flat or rising; no compound was filed as active; the % refers to the polarisation; negative = inhibition;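 also: % of control where 0% means no effect; inhibitors lower the polarisation; unlabelled MLL peptide was the positive control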
Sfp inh: blocks B. subtilis Sfp PPTase activity; Potency, µM, inactives show max response, negative = inhibition, hits mostly inhibitors; Q9F4F7; 310,000 tested, 3.5% active; Biochemical Sfp PPTase activity, qHTS; active = well fitted inhibition curve with a large enough effect; inconclusive = small, poorly fitted or top-dose-only effect, or another doubt; inactive = no such curve, though single readings can be large or run the other way;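 also: the enzyme is Sfp with the accession as filed and its product quenches rhodamine fluorescence; potency is read from the fitted curve at half-maximal effect; 0% = enzyme reaction without inhibitor and -100% = no enzyme wells; top concentration of the series not given in the record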
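Reaction rates are the 30-min fluorescence difference (ex 525, em 598 nm) in wells containing 15 nM Sfp, 5 uM rhodamine-CoA and 12.5 uM BHQ-2-YbbR at pH 7.6 with 10 mM MgCl2.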
D2 PAM: positive allosteric modulators of human D2 dopamine receptor | DiscoveRx D2 beta-arrestin cells, luminescence, 90 min; 100% = 57 uM dopamine signal | 360,000 tested, 0.23% active | potentiation, % (no concentration beside the values); active = potentiation of 50% or more; inconclusive = 30% to 50%; inactive = 30% or less;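 also: compound concentration not given in the record; tested on top of an EC20 dose of dopamine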
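PathHunter D2 cells, attached overnight at 37 deg C, received compound in DMSO plus dopamine at EC20 (50 nM final) for 90 min at 37 deg C. Beta-arrestin recruitment was read as luminescence after 1 h with detection reagent at ambient temperature.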
ClpP mod: qHTS Assay for Activators of ClpP. ATP-dependent Clp protease proteolytic subunit (Bacillus subtilis (strain 168)), P80244. purified B. subtilis ClpP, FRET peptide cleavage, 20 min. Potency, µM (top dose mostly 57.5 µM), inactives show at the highest dose activity change, negative = active. 340,000 tested, 1.9% active. AID 651965, 2013; active = well fitted falling curve with a large enough effect; inconclusive = small, poorly fitted or top-dose-only effect; inactive = no such curve, though single readings can be large or run the other way; also: potency is read from the fitted curve at half-maximal effect; the source files actives as falling curves though it sought activators and does not explain the sign; nearly all actives have a fitted effect of over 65% in size; many hits overshoot -100%
Target sequence (P80244 whole entry, looked up): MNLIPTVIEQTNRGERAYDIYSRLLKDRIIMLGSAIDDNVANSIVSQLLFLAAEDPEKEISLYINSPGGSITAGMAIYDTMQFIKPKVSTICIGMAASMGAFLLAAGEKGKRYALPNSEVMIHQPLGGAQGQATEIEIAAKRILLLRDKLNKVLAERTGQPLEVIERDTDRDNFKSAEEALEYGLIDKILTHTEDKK
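FRET quenching reversal measured ClpP activation: 10 microg/mL B. subtilis ClpP at pH 8 with the FRET-FV decapeptide, read at 430 nm after 320 nm excitation. The 20-min minus 0-min signal was scaled between DMSO/no-enzyme wells and ADEP (5.8 microM final).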
gsp antag: antagonists of gsp mutant (McCune-Albright syndrome); gsp-mutant cells, cAMP HTRF, 30 min; control for the full effect not named in the record; Potency, µM (highest dose often 76.9 µM), for the others: top-dose activity change, negative = inhibition, hits mostly inhibitors; 340,000 tested, 0.4% active; active = falling curve of any shape with a large fitted effect; inconclusive = falling curve, mostly with a smaller effect; inactive = flat or rising curve; cell line not stated here;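 also: intracellular cAMP measured with PDE inhibitor Ro 20-1724 present during compound exposure; potency is read from the fitted curve at half-maximal effect; % is scaled to controls: 0 for no effect and ±100 for the full control effect; nearly all actives have a fitted effect of over 65% in size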
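Cells in G418 medium, seeded 16-24 h, 37C; buffer exchange to DPBS + 1 mM CaCl2, 0.5 mM MgCl2, 0.05% BSA; cpds in DMSO + […] (300 uM stock), 30 min 37C; HTRF cAMP detection.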
TRPV1 PAM: human TRPV1 potentiation. Q8NER1. TRPV1-expressing cells, Fluo-8 calcium influx, capsaicin EC20 potentiation; host cell line not named in the record; control for the full effect not named in the record. potentiation, % at 8.33 µM. 320,000 tested, 0.02% active; active means potentiation above 80%; inconclusive means 30% to 80%; inactive means below 30%; also: 0% is about no effect
Target sequence (Q8NER1 whole entry, looked up): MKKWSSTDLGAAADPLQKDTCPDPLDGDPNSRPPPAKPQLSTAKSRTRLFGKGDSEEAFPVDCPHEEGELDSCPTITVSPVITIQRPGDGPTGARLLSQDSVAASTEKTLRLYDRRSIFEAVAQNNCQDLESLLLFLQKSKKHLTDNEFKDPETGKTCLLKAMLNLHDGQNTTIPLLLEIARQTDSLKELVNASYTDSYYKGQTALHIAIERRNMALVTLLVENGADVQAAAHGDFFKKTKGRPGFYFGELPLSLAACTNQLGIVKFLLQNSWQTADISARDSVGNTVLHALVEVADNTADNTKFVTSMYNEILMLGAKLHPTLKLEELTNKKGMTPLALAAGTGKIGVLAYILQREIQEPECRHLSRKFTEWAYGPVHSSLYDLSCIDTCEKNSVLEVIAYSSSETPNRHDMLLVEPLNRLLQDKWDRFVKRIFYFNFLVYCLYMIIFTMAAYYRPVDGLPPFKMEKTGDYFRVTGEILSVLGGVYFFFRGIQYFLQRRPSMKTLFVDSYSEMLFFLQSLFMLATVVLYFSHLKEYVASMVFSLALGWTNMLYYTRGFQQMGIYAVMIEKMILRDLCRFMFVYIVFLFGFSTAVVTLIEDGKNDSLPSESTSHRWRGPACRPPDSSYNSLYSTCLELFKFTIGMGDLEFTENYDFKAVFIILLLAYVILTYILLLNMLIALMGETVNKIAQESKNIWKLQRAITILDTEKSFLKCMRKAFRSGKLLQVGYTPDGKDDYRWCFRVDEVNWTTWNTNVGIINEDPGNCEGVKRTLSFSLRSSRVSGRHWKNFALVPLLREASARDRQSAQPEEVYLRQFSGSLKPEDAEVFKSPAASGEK
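Cells expressing TRPV1 were dye-loaded with Fluo-8 and read kinetically: 10 s baseline, 3 min after compound (agonist portion), then 2 min after EC20 capsaicin (allosteric enhancer portion). Calcium-bound dye fluorescence at 480/520 nm.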
* marks the source's active call; other numbers are inactive results; ? = inconclusive; / = not tested or not shown; & = joins results of further samples; ! = a repeat was not active; [ ] = another dose, or the depositor's remark.

SMILES,gsp agonist,Menin MLL FP FL,Sfp inh,D2 PAM,ClpP mod,gsp antag,TRPV1 PAM
OCC[C@@H]1C[C@H](O)[C@@H](O)[C@@]2(CCCc3ccccc3O2)O1,42.9%,-8.4,-5.7%,-4.6,0.6%,8.4%,13.0
NS(=O)(=O)c1ccc(NC(=S)NC(=O)c2ccco2)cc1,3.6%[15.4 µM],-0.7&0.1,44.7µM*!,-28.1,10µM*,-0.1%,0.0&-0.6
CC(Oc1ccccc1)C(=O)NC1=NCCS1 (stereo not given),-22.2%[15.4 µM],-0.4,10.1%,13.7,/,/,1.7
Cc1ccc(C(=O)NC2CCCN(c3ccc(C(F)(F)F)cn3)C2)cn1 (stereo not given),-2.5%,-6.3,-2.7%,-10.7,-25.7%,-1.0%,0.1
CCOc1ccc(NC(=O)CCC(=O)c2ccc(Br)cc2)cc1,-9.5%[15.4 µM],1.3,1.9%,1.3,-0.1%,12.1%,20.3
COc1cc(CNC(=O)C2CCCC2)cc(OC)c1OC,-8.4%[15.4 µM],6.0,4.8%,1.6,-1.2%,7.5%,-4.2
COC(=O)C1CN(S(=O)(=O)c2ccc(NC(C)=O)cc2)CCS1 (stereo not given),9.5%,-5.4,-6.3%,-2.6,/,10.3%,0.1
O=C(CC1OCC2CCCN2C1=O)Nc1ccc([N+](=O)[O-])cc1 (stereo not given),12.9%,-3.7,-0.4%,-2.4,/,3.2%,-4.9
COc1ccc(N2CC(C(=O)NC3=NCCS3)CC2=O)cc1 (stereo not given),-0.9%,0.1,9.1%,-7.8,0.2%,10.7%,2.7
COc1ccc2c(C=O)cn(C)c2c1,21.0%,-4.0,7.7%,-5.2,/,-5.0%,0.1
COc1cc2cnc(CCO[C@H]3CCCCO3)cc2cc1OC,0.6%,/,/,-1.7,-16.7%,-9.5%,/
Cc1n[nH]c(C)c1SCC(=O)Nc1ccc(F)cc1,-23.5%,0.7,21.8%,-4.2,-1.3%,1.5%,-7.0
Nc1nc(Nc2ccccc2)nc2ccccc12,-13.0%,2.4,-11.7%,-6.8,-3.6%,8.1%,5.1
CCOC(=O)/C(C#N)=C/c1ccc(OC)c(OC)c1,-2.5%,2.1,0.7%,8.8,3.9%,-0.6%,0.9
COc1cc(CCCN2C(=O)C(=O)NC[C@@H]2c2ccccc2)cc(OC)c1OC,-42.8%[inhibitor],-3.6,14.7%,2.0,-0.2%,2.6%,1.2
O=C(CN1C(=O)COc2ccccc21)NNC(=O)Nc1ccccc1F,3.3%,2.9,-23.8%,-7.2,/,6.7%,8.7
O=C(NNC1=NS(=O)(=O)c2ccccc21)c1cccc([N+](=O)[O-])c1,-8.8%,-0.6,16.0%,-0.6,2.2%,3.4%,2.5
CC(=NNC(=O)c1ccncc1)c1ccc(Cl)c(Cl)c1,26.2%,/,/,-3.8,/,-8.3%,/
Cc1ccc(C(=O)NCc2ccc(Cl)cc2)cc1S(=O)(=O)N1CCCCC1,1.9%,/,/,-3.5,-4.3%,-9.0%,14.4
N#CC1(NC(=O)COc2ccccc2[N+](=O)[O-])CCCCC1,-18.1%[15.4 µM],/,/,-27.0,/,-3.5%,-11.3
CCCCNC(=O)c1ccccc1NC(=O)CCC,-7.0%,-1.0,26.7%,-4.2,?,4.3%,4.9
Clc1ccc(Cc2ccccc2)nn1,14.5%,1.9,15.4%,-2.3,-1.3%,-4.7%,21.9
CCOc1ccc(N(C(=O)CNC(=O)c2ccco2)C(C(=O)NC2CCCC2)c2cccnc2)cc1 (stereo not given),29.8%,-0.7,12.9%,-3.6,/,1.3%,-7.1
CCOc1ccc2nc3sc(C(=O)N4CCN(C)CC4)c(N)c3cc2c1,20.7%,10.9,-9.5%,-9.7,-1.2%,-9.1%,3.0
CCN(C(=O)Cn1c(=O)oc2ccccc21)c1cccc(C(F)(F)F)c1,?,1.9,15.7%,-10.3,-0.7%,-2.8%,14.4
Cc1ccc(-c2nc(C3CCCN(S(=O)(=O)c4ccc(C(C)(C)C)cc4)C3)no2)cc1 (stereo not given),-25.6%,0.4,21.3%,-4.2,1.0%,4.9%,-2.1
C(=N\c1nccs1)/Nc1nccs1,-1.9%,-1.6,-21.2%,-10.4,-0.3%,15.3%,-0.7
O=C(O)CC1(C(=O)O)CC2C=CC1C2 (stereo not given),23.7%,/,/,-13.8,-0.7%,/,/
CC[C@H](C)[C@H]1O[C@]2(CC[C@@H]1C)C[C@@H]1C[C@@H](CC=C(C)[C@@H](O[C@H]3C[C@H](OC)[C@@H](O[C@H]4C[C@H](OC)[C@@H](O)[C@H](C)O4)[C@H](C)O3)[C@@H](C)C=CC=C3CO[C@@H]4[C@H](O)C(C)=C[C@@H](C(=O)O1)[C@]34O)O2,/,/,/,8.7,-12.2%,?,/
Cc1cc(C(=O)N[C@H](c2ccccc2)[C@@]2(C)C[C@@H]2[C@@H](C)C(=O)Nc2ccc3ccccc3c2)no1,/,-1.4&-2.1,11.3%&18.4%,-0.7,-0.9%,-16.4%,-7.2
O=C(NC1CCCCC1)C1c2ccccc2C(=O)N1Cc1ccc2c(c1)OCO2 (stereo not given),-7.9%[15.4 µM],-2.2,6.4%,-20.5,12.2%,3.0%,-0.6
COc1cc(CN2CCc3ccccc3C2)ccc1O,-0.8%,0.0,-20.5%,-30.3,1.8%,18.2%,/
C=C1CCN([C@@H](CC(C)C)C(=O)NCc2ccco2)S(=O)(=O)c2ccccc21,6.9%,/,/,-4.1,-4.4%,5.8%,/
CCOc1ccc(CCNC(=O)COC(=O)/C=C/c2cccc(OC)c2)cc1OCC,?,/,/,3.5,-28.7%,1.0%,-5.8
CC(C)CCNC(=O)CCCOc1ccccc1,1.2%,3.1,14.0%,-9.4,-2.2%,1.1%,-7.0
Cc1ccc(S(=O)(=O)N2CCN(C(=O)COC(=O)c3cc([N+](=O)[O-])ccc3NCCO)CC2)c(C)c1,2.3%,/,/,-9.0,-1.2%,-18.7%,/
Cc1c(NC(=O)c2cccc(NC(=O)COc3ccc(C#N)cc3)c2)c(=O)n(-c2ccccc2)n1C,0.1%[15.4 µM],/,/,-2.6,/,4.4%,1.5
COc1ccc(C2C(C(=O)c3ccccc3)N3c4ccccc4C=CC3C2[N+](=O)[O-])cc1 (stereo not given),4.6%[15.4 µM],?,5.5%,-8.0,/,/,0.3
Cc1cccc(CS(=O)(=O)c2cn(CC(=O)N3CCOCC3)c3ccccc23)c1,-0.5%,/,50.1µM*,-10.3,0.5%,-3.1%,-8.2
Cc1cccc(COC[C@H](Cc2ccccc2)N2CCN(C(=O)c3cccc(C)c3)CCC2=O)c1,/,-0.2,-1.6%,/,-0.1%,/,/
CCCC(=O)Nc1cc2c(cc1C(C)=O)OCCO2,?,-1.5,19.3%,-2.7,-10.4%,3.2%,-2.0
COCCCNC(=O)Cn1nnc(-c2ccc(NC(=O)c3ccccc3F)cc2)n1,27.2%,1.3,7.9%,-19.1,-21.4%,-5.5%[15.4 µM],0.9
COc1cccc(OC)c1C(=O)Nc1ccc2c3c(cccc13)CC2,-8.0%,3.1,-4.9%,2.0,-1.0%,-16.1%,-3.5
Cc1ccc(/C=N\NC(=O)Cc2cccn2C)o1,-16.5%[15.4 µM],-3.2,39.8µM*,-2.4,/,-5.7%,?
O=C(O)CN1C(=O)/C(=C\c2cn(CC(=O)N3CCOCC3)c3ccccc23)SC1=S,-7.4%,?,-24.2%,-3.8,/,-21.5%,0.9
Cc1nc2nc(C)n(-c3ccccc3)c2s1,6.8%,1.4,4.2%,3.3,?,-5.1%,-18.6
CC1CCC(CC(=O)O)(C(=O)O)CC1 (stereo not given),-14.9%,/,/,-0.6,/,5.3%,/
CN(C)CCN1C(=O)C2C(C(=O)Nc3cc(Cl)cc(Cl)c3)C3C=CC2(O3)C1C(=O)NC1CCCCC1 (stereo not given),19.7%[15.4 µM],1.7,7.1%,-11.6,0.2%,-9.1%,21.8
COc1cc(C)nc(NCc2ccccc2)n1,-4.2%,1.2,-2.8%,-12.5,-1.3%,9.3%,-18.2
COc1ccc(C)cc1NC(=O)c1ccc(OC(F)F)cc1,-2.9%,?,5.7%,-20.0,-3.2%,-4.1%,-6.8

Carrying on.
SMILES,gsp agonist,Menin MLL FP FL,Sfp inh,D2 PAM,ClpP mod,gsp antag,TRPV1 PAM
Cc1ccc2nc(SCC(=O)NCc3ccc(S(N)(=O)=O)cc3)[nH]c2c1,-10.3%,-0.1,-1.8%,6.3,-1.6%,7.0%,4.3
O=C(CSc1nnc(SCC(=O)NCc2ccc3c(c2)OCO3)s1)NCc1ccc2c(c1)OCO2,?,2.0,2.4%,-14.6,-0.1%,4.5%,-8.0
Cc1cc(Br)c(NC(=O)Cn2c([N+](=O)[O-])cnc2C)cc1C,2.0%,-0.4,10.8%,-13.6,-1.2%,1.3%,17.6
C=CCn1c(C)c(C(C)=O)c(N2CCOCC2)nc1=S,3.7%,-0.5,-2.8%,-37.4,-4.6%,9.1%,-1.7
Cc1nc(N2CCCCC2)c2ccsc2n1,-7.6%,0.2,?,-27.4,0.8%,2.0%,-0.9
Cc1cc(C)nc(N2CCCC(C(=O)NCC(c3ccccc3)c3ccccc3)C2)n1 (stereo not given),-54.6%[inhibitor],-2.7,0.2%,4.1,-26.3%,-2.7%,-14.9
CCC1(C)Cc2ccccc2-c2nc(SCC(N)=O)[nH]c(=O)c21 (stereo not given),?,9.9,2.2%,-11.6,-10.5%,16.3%,21.2

Single entries from above.
Cc1ccc2nc(SCC(=O)NCc3ccc(S(N)(=O)=O)cc3)[nH]c2c1 | gsp agonist = -10.3%
Cc1cc(C)nc(N2CCCC(C(=O)NCC(c3ccccc3)c3ccccc3)C2)n1 (stereo not given) | gsp agonist = -54.6%[inhibitor]
